# Menin MLL FP FL: qHTS Assay for Inhibitors Targeting the Menin-MLL Interaction in MLL Related Leukemias: Competition With Fluorescein Labeled MLL-derived Peptide | Fluorescence polarization, fluorescein-MLL peptide displacement from menin | FP activity change, % at 61.4 µM | 290,000 tested, under 10 active; inconclusive = falling polarisation curve, or a change in total fluorescence; inactive = total fluorescence flat and polarisation flat or rising; no compound was filed as active; the % refers to the polarisation; negative = inhibition;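 further: % of control where 0% means no effect; inhibitors lower the polarisation; unlabelled MLL peptide was the positive control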
# Sfp PPTase inh: qHTS Assay for Inhibitors of Bacillus subtilis Sfp phosphopantetheinyl transferase (PPTase); 310,000 compounds, 3.5% hits; 4'-phosphopantetheinyl transferase ffp (Bacillus subtilis), Q9F4F7; Potency, µM, without a hit: max response, negative = inhibition, hits mostly inhibitors; AID 1490, 2009; Biochemical Sfp PPTase activity, qHTS; active means well fitted inhibition curve with a large enough effect; inconclusive means small, poorly fitted or top-dose-only effect, or another doubt; inactive means no such curve, though single readings can be large or run the other way;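 further: the enzyme is Sfp with the accession as filed and its product quenches rhodamine fluorescence; potency means the concentration at half of the fitted maximal effect; 0% = enzyme reaction without inhibitor and -100% = no enzyme wells; top concentration of the series not given in the record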
#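 Buffer: 50 mM Hepes-Na pH 7.6, 10 mM MgCl2, 0.01% Nonidet P-40, 0.01% BSA. Enzyme 15 nM, pre-exposed to compound 15 min; substrates then added and fluorescence change tracked over 30 min.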
# Starred values were filed as active, the others as inactive; ? = inconclusive; & = joins results of further samples; ! = a repeat was not active; [ ] = remark or other dose. Only part of the results is shown, so the mix of outcomes need not match the whole.
SMILES,Menin MLL FP FL,Sfp PPTase inh
C[N+]1(C)[C@@H]2CC(OC(=O)[C@@H](CO)c3ccccc3)C[C@@H]1[C@H]1O[C@H]12 (stereo not given in full),5.8,-2%
O=C1NC(=O)C(=O)C(=O)N1,-14,14µM*
CC(C)C[C@H]1C(=O)N2CCCC2[C@]2(O)O[C@](NC(=O)[C@@H]3C=C4c5cccc6[nH]c(Br)c(c56)C[C@H]4N(C)C3)(C(C)C)C(=O)N12 (stereo not given in full),-12&-9.8,45µM*
N#CC(C#N)=Cc1cc(O)c(O)c(O)c1,?,50µM*
Cc1cc(SCc2sc(-c3ccc(C(F)(F)F)c(F)c3)nc2C)ccc1OCC(=O)O,0.0&1.3,-21%&-5%
CN(C)[C@H]1C(=O)C(C(N)=O)=C(O)[C@]2(O)C(=O)C3=C(O)c4c(O)cccc4[C@@](C)(O)[C@H]3C[C@@H]12,?,-12%
O=C(O)CCC(CP(=O)(O)O)C(=O)O (stereo not given),1.2,-7%
CCCCC/C=C\C/C=C\C/C=C\C/C=C\CCCC(=O)OC(CO)CO,19&3.1,25%&7%
c1ccc(CN2CC[C@@]3(CCCNC3)C2)cc1,3.1,2%
COc1ccc(/C=C/C(=O)N2CC3C[C@@H](C2)Cn2c3cccc2=O)cc1OC,-0.9,-11%
O=C(O)c1ccc2[nH]cc(CCCCN3CC=C(c4ccccc4)CC3)c2c1,0.8,30%[activator]
O=C1C=CC(=O)C(Cl)=C1,-2.3,4µM*
O=C1C=C2C=C[C@@H]3C[C@@]2(O1)[C@H]1CCCCN31,5.4&-0.8,16%&-4%
CCCOc1ccc2[nH]cc(C3=CCNCC3)c2n1,?,?
CC1(C)C(=O)[C@@H]2OC2[C@@]2(C)C1CC(O)[C@]1(C)C2CC[C@@]2(C)C(c3ccoc3)OC(=O)C3OC312 (stereo not given in full),-0.5,-11%
C[C@@]12CCC3C(CC[C@@H]4CC(O)CC[C@@]34C)C1CCC2O (stereo not given in full),-0.4,7%
O=C1NCN(c2ccccc2)C12CCN(CC1COc3ccccc3O1)CC2 (stereo not given),-1.7&0.2,7%&-11%
CN(C)C1C(=O)C(C(N)=O)=C(O)[C@@]2(O)C(=O)C3=C(O)c4c(O)ccc(Cl)c4[C@](C)(O)C3CC12 (stereo not given in full),?,-60%
COC(=O)N1CCC2(CCN(CC(C)C)CC2)CC1,3.0,-5%
O=C1C(Cl)=C(Cl)C(=O)C(Cl)=C1Cl,?,-85%
CN1C[C@H](C(=O)N[C@]2(C)O[C@@]3(O)[C@H]4CCCN4C(=O)[C@H](Cc4ccccc4)N3C2=O)C[C@H]2c3cccc4[nH]cc(c34)C[C@@H]21,?,-14%
CNC(C)[C@H](O)c1ccccc1 (stereo not given in full),-1.1,0%
CCC(C=C[C@@H]1OC(=O)C=C[C@H]1C)=C[C@H](C)CC=CC(C)=C[C@@H](C)C(=O)[C@@H](C)[C@H](O)[C@@H](C)CC(C)=CC(=O)O,-6.5[2.29 µM],0.71µM*
CN1C2CCC1CC(OC(=O)C1CCC(C(=O)OC3CC4CCC(C3)N4C)(c3ccccc3)c3ccccc31)C2 (stereo not given),-3.1,14%
CC(=O)OCC1=C(C(=O)O)N2C(=O)C(NC(=O)CCCC(N)C(=O)O)C2SC1 (stereo not given),-1.6,-11%

# Further compounds
SMILES,Menin MLL FP FL,Sfp PPTase inh
CCCC(=O)O[C@@H]1[C@@H](C)[C@@]2(O)[C@@H](C=C(CO)C[C@]3(O)C(=O)C(C)=C[C@@H]23)[C@@H]2C(C)(C)[C@]12OC(=O)CCC,2.7,-6%
COC1=CC23CCCN2CCc2cc4c(cc2C3C1O)OCO4 (stereo not given),8.4,5%
Cn1c2c(c3ccccc31)CCNCC2,0.5,3%
CN1CCC2=C[C@@H](O)[C@@H]3OC(=O)c4cc5c(cc4C3C21)OCO5 (stereo not given in full),-1.7,5%
Cc1ccc(Cl)c(O)c1,-0.6,5%
N#CN,1.6,-4%
C/C1=C/C(=O)O[C@@H]2C[C@@H](CC[C@H](C)/C=C\CC1)O[C@@](O)(C1CSC(=O)N1)C2 (stereo not given in full),0.4&4.5,18%&10%
O=C(O)COc1nc(Cl)c(Cl)cc1Cl,-0.3,8%
COc1ccc(C[C@H]2c3cc(OC)c(OC)cc3CCN2C)cc1OC,-1.4[24.8 µM],13%
CCCCC/C=C\C/C=C\C/C=C\CCCCC(=O)NCCc1ccc(O)c(O)c1,2.3,11%
CC1(C)C(C=C(Cl)Cl)C1C(=O)OC(C#N)c1cccc(Oc2ccccc2)c1 (stereo not given),2.7,23%&0%
CCCCC/C=C\C/C=C\C/C=C\C/C=C\CCCC(=O)N(Cc1ccc(O)c(Cl)c1)Cc1ccc(O)c(Cl)c1,-5.0,-5%
CC(N)[C@H](O)c1ccccc1 (stereo not given in full),-0.2,10%
O[C@H]1[C@H]2[C@H](O)CCCN2C[C@H]1O,4.7,23%
CN1C(=O)COc2c(C(=O)N[C@@H]3CN4CCC3CC4)cc(Cl)cc21,-6.6,-9%
NCC(N)C(=O)c1ccccc1 (stereo not given),-3.2,-3%
Clc1ccccc1Cl,-3.5,15%
C[C@]12CCC3C(C=CC4=CC(=O)CC[C@]43C)C1CC[C@]2(O)CCC(=O)O (stereo not given in full),3.0,8%
CNC(C)C(O)c1ccc(O)cc1 (stereo not given),-2.3,8%
C[C@H]1CC[C@@H]2[C@@H](C)[C@H]3C(C[C@H]4C5CC[C@H]6C[C@@H](O)CC[C@]6(C)C5CC[C@]34C)N2C1 (stereo not given in full),2.6,-5%
CCCCCCCCCCCCCCCCN,?,14%
CNC(C)[C@@H](O)c1ccccc1 (stereo not given in full),?,21%
FC(F)(F)c1cccc(C2=CCN(CCc3ccc4ccccc4c3)CC2)c1,4.9&-0.1,10%&9%
CCCCC[C@@H](/C=C/C=C\CCCCCCCCCC(=O)O)OO,-1.5,2%
c1ccc(CN2CCC3(CCNCC3)CC2)cc1,-8.1,-12%

# Retrieved by structure from the entries so far, two records:
SMILES,Menin MLL FP FL,Sfp PPTase inh
NCC(N)C(=O)c1ccccc1 (stereo not given),-3.2,-3%
CCCCCCCCCCCCCCCCN,?,14%

# The list goes on.
SMILES,Menin MLL FP FL,Sfp PPTase inh
C[C@]12C/C(=C/O)C(=O)C[C@@H]1CC[C@@H]1[C@@H]2CC[C@@]2(C)[C@H]1CC[C@]2(C)O,3.7,1%
O=[As]O[As]=O (stereo not given),0.1,23%
CCOP(=S)(OCC)SCSc1ccc(Cl)cc1,5.7,-22%
COC(=O)C1C(c2ccccc2)C2C(=O)c3c(OC)cc(OC)cc3O[C@@]12c1ccc(OC)cc1 (stereo not given in full),-3.7[11.7 µM],11%
CCC(C(=O)O)C1CCC(C)C(C(C)C(O)C(C)C(=O)C(CC)C2OC3(C=CC(O)[C@@]4(CC[C@](C)(C5CC[C@@](O)(CC)C(C)O5)O4)O3)C(C)CC2C)O1 (stereo not given in full),?,25%
C[C@H]1CC[C@@]2(NC1)O[C@@H]1C[C@H]3[C@@H]4CC=C5C[C@@H](O)CC[C@]5(C)[C@@H]4CC[C@]3(C)[C@@H]1[C@@H]2C,-2.5[24.8 µM],7%
Cc1o[nH]c(=O)c1C[C@@H](N)C(=O)O,0.0&-19,79µM*!
O=C(CS(=O)C(c1ccccc1)c1ccccc1)NO (stereo not given),-2.4&2.1,-12%&-9%
CC(C)(C)OC(=O)N1CC[C@H]1COc1cnc[c]([Sn]([CH3])([CH3])[CH3])c1,0.1[11.7 µM],12%
O=c1ccc2cc(O[C@H]3O[C@@H](CO)[C@@H](O)[C@@H](O)[C@@H]3O)c(O)cc2o1,-2.1[24.8 µM],28%
C=C1[C@@H](O)C2C=CC[C@H](C)C(=O)[C@@](C)(O)C=C[C@@H](OC(C)=O)[C@@]23C(=O)N[C@H](Cc2ccccc2)[C@@H]3[C@@H]1C (stereo not given in full),?,-14%
CC[C@H]1CN2CC[C@@H]1C[C@H]2[C@@H](O)c1ccnc2ccc(OC)cc12,0.9[24.8 µM],22%
C#CCOC(C(=O)OCCN(C)C)(c1ccccc1)c1ccccc1,0.5,15%
COC(=O)CN1CN(c2ccccc2)C2(CCN(Cc3ccc4ccccc4c3)CC2)C1=O,?,71µM*
CC1=CC[C@@H]2[C@@H](C1)c1c(O)cc(CC#CCCCNS(C)(=O)=O)cc1OC2(C)C,-2.2,18%
C[C@]12CCC(=O)C=C1CCc1ccc(O)cc12,6.2,0%
C[C@H]1C(=O)O[C@@H]2CCN3CC=C(COC(=O)[C@@](C)(O)[C@@]1(C)O)[C@H]23,0.2[24.8 µM],?
CC(=O)Oc1ccc(Cl)c2cccnc12,2.4,22%
C[C@H]1CC[C@@]2(NC1)O[C@@H]1C[C@H]3[C@@H]4CC[C@@H]5C[C@@H](O)CC[C@@]5(C)[C@@H]4CC[C@]3(C)[C@@H]1[C@@H]2C,-3.6[24.8 µM],17%
Cc1c(C(=O)c2cccc3ccccc23)c2cccc3c2n1[C@@H](CN1CCOCC1)CO3,10,7%
CCCN(C/C=C\I)[C@@H]1CCc2ccc(O)cc2C1,?,2%
c1csc(CN2CC3(CCNCC3)C2)n1,-2.0,12%
CCCCCCCCCC[n+]1cccc([C@@H]2CCCN2C)c1,-0.6,56µM*
COC1=CC(=O)O[C@@H](/C=C\c2ccccc2)C1,0.4[24.8 µM],12%
N#Cc1c(Cl)cccc1Cl,-5.3,15%

# The results go on:
SMILES,Menin MLL FP FL,Sfp PPTase inh
C[C@@H]1CC[C@H]2[C@@H](C)C(=O)O[C@@H]3OC4(C)CC[C@@H]1C32OO4 (stereo not given in full),-2.2,8%
C=C[C@H]1CN2CC[C@@H]1C[C@H]2[C@@H](O)c1ccnc2ccccc12,-0.1&3.1[24.8 µM],8%&14%
Nc1nc(N)nc(NC2CC2)n1,6.0,-7%
CC(C)NC(=O)N1CCC2(CC1)CCN(C(=O)Oc1ccccc1)CC2,-1.3,15%
CN(C)C1CSSSC1,2.8,27%
COC1C(O)C(C)O[C@@H](OC2CC[C@@]3(C)C4CC[C@]5(C)C(C6=CC(=O)OC6)CC[C@@]5(O)C4CC[C@@H]3C2)C1O (stereo not given in full),0.0,10%
Cl.Cl.Cl.Cl.Cl.Cl.N.N.N.N.NNNNN.NNNNN.O.O.[Ru].[Ru].[Ru],-9.5,50µM*
CN(C)CCN(C)CCc1ccc(Cl)c(Cl)c1,?,16%&-13%
COc1ccc2c3c1OC1C[C@@H](O)C=C[C@@]31CCN(C)C2 (stereo not given in full),?,13%&0%

# Whole records, looked up by structure.
# Results for CN(C)CCN(C)CCc1ccc(Cl)c(Cl)c1 = Menin MLL FP FL: ?; Sfp PPTase inh: 16%&-13%
# Results for Cl.Cl.Cl.Cl.Cl.Cl.N.N.N.N.NNNNN.NNNNN.O.O.[Ru].[Ru].[Ru] = Menin MLL FP FL: -9.5; Sfp PPTase inh: 50µM*

# Look-ups from above:
# CC(C)NC(=O)N1CCC2(CC1)CCN(C(=O)Oc1ccccc1)CC2 in Sfp PPTase inh shows 15%
# O=C1C(Cl)=C(Cl)C(=O)C(Cl)=C1Cl in Sfp PPTase inh shows -85%
# O=C(O)COc1nc(Cl)c(Cl)cc1Cl in Menin MLL FP FL shows -0.3

# 4 structures from above, arranged by SMILES length, rising:
SMILES,Menin MLL FP FL,Sfp PPTase inh
COc1ccc2c3c1OC1C[C@@H](O)C=C[C@@]31CCN(C)C2 (stereo not given in full),?,13%&0%
CC(C)NC(=O)N1CCC2(CC1)CCN(C(=O)Oc1ccccc1)CC2,-1.3,15%
C=C[C@H]1CN2CC[C@@H]1C[C@H]2[C@@H](O)c1ccnc2ccccc12,-0.1&3.1[24.8 µM],8%&14%
C[C@@H]1CC[C@H]2[C@@H](C)C(=O)O[C@@H]3OC4(C)CC[C@@H]1C32OO4 (stereo not given in full),-2.2,8%
